Screens from PubChem.
UUG fidelity: yeast start codon fidelity modulation; 350,000 tested, 0.13% active; activity score, % at 18.7 µM; AID 602363; S. cerevisiae UUG-firefly luciferase reporter, luminescence/redox ratio;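 active means replicate mean at a twofold rise or more, about +100% in these data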;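 further: firefly luciferase made from a UUG start codon reports start codon fidelity; reporter light over untreated wells divided by growth signal over untreated wells; some hits fall short of that in this replicate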
Numbers without * were called inactive. Only part of the results is shown; count on the stated rates, not on these rows.

canonical_smiles	UUG fidelity
COCC(=O)N1CC[C@@H]2[C@H]1c1cc(C#Cc3ccc(F)cc3)ccc1N[C@@H]2CO	-3.9
CC(=O)NC[C@H]1[C@H](c2ccc(-c3cccnc3)cc2)[C@@H](CO)N1C(=O)C1CC1	-1.9
COc1ccc(NC(=O)Nc2ccc3c(c2)CC(=O)N([C@H](C)CO)C[C@H](C)[C@H](CN(C)C)O3)cc1	2.3
C[C@@H]1CN([C@@H](C)CO)C(=O)c2cccc(NC(=O)Nc3ccc(F)cc3)c2O[C@H]1CN(C)S(=O)(=O)c1ccc(Cl)cc1	6.4
O=C(c1ccccc1F)N1CC[C@@H]2[C@@H](CO)Nc3ccc(-c4cccc(F)c4)cc3[C@@H]21	-8.3
Cc1ccc(S(=O)(=O)Nc2ccc3c(c2)CC(=O)N([C@@H](C)CO)C[C@H](C)[C@@H](CN(C)Cc2ccccc2)O3)cc1	-7.1
CCCNC(=O)Nc1ccc2c(c1)C(=O)N(C)[C@@H]1CC[C@@H](CC(=O)NCCCN(C)C)O[C@@H]1CO2	-0.2
O=C(C[C@@H]1CC[C@H]2[C@@H](COC[C@@H](O)CN2C(=O)Nc2cccc(F)c2)O1)NCCCN1CCOCC1	-9.1
COc1ccc(CN(C)C[C@@H]2Oc3ccc(NS(=O)(=O)c4ccc(Cl)cc4)cc3C(=O)N([C@@H](C)CO)C[C@H]2C)cc1	-15.6
O=C(C[C@H]1C[C@@H]2c3cc(NC(=O)Nc4ccccc4F)ccc3O[C@@H]2[C@H](CO)O1)NCCc1ccccc1	-3.8
O=C(C1CCCC1)N1[C@@H]2CN(S(=O)(=O)c3ccccc3)c3ccccc3[C@@H]2[C@@H]1CO	16.1
Cc1ccc(S(=O)(=O)N(C)C[C@@H]2Oc3ccc(NC(=O)Nc4ccc(C(F)(F)F)cc4)cc3C(=O)N([C@@H](C)CO)C[C@@H]2C)cc1	-18.2
CN1CCN(C(=O)C[C@H]2CC[C@@H]3[C@H](COC[C@H](O)CN3Cc3cccc(-c4ccncc4)c3)O2)CC1	-8.4
CC(C)NC(=O)N1[C@H](CO)[C@@H](c2ccccc2)[C@@H]1CN(C)C(=O)c1cccnc1	4.8
O=C(C[C@H]1CC[C@H]2[C@@H](COC[C@@H](O)CN2S(=O)(=O)c2ccc(F)cc2)O1)NCCN1CCCCC1	-6.5
CO[C@H]1CN(C)C(=O)c2cc(NC(C)=O)ccc2OC[C@H](C)N(C(=O)c2ccccc2F)C[C@H]1C	-6.2
COc1ccc(-c2ccc3c(c2)[C@H]2[C@H](CCN2S(=O)(=O)c2ccccc2F)[C@H](CO)N3)cc1	-10.2
CN1CCN(C(=O)C[C@H]2CC[C@H]3[C@@H](COC[C@H](O)CN3Cc3ccc(Oc4ccccc4)cc3)O2)CC1	-7.9
COc1ccc(S(=O)(=O)N(C)C[C@@H]2Oc3ccc(NC(=O)c4ccncc4)cc3C(=O)N([C@H](C)CO)C[C@H]2C)cc1	9.1
CN(C)C(=O)c1cccc(-c2ccc3c(c2)[C@@H]2[C@@H](CCN2C(=O)c2ccncc2)[C@H](CO)N3C)c1	1.1

In the list so far, 4 have an aryl methoxy group:
canonical_smiles	UUG fidelity
COc1ccc(NC(=O)Nc2ccc3c(c2)CC(=O)N([C@H](C)CO)C[C@H](C)[C@H](CN(C)C)O3)cc1	2.3
COc1ccc(CN(C)C[C@@H]2Oc3ccc(NS(=O)(=O)c4ccc(Cl)cc4)cc3C(=O)N([C@@H](C)CO)C[C@H]2C)cc1	-15.6
COc1ccc(-c2ccc3c(c2)[C@H]2[C@H](CCN2S(=O)(=O)c2ccccc2F)[C@H](CO)N3)cc1	-10.2
COc1ccc(S(=O)(=O)N(C)C[C@@H]2Oc3ccc(NC(=O)c4ccncc4)cc3C(=O)N([C@H](C)CO)C[C@H]2C)cc1	9.1

More entries.
canonical_smiles	UUG fidelity
O=C(c1ccccn1)N1CC[C@@H]2[C@H]1c1cc(C#Cc3ccccc3)ccc1N[C@@H]2CO	-0.9
O=C(Nc1ccccc1)N1C[C@@H]2[C@H](c3ccccc31)[C@@H](CO)N2C(=O)Cc1ccccn1	28.6
CC(C)NC(=O)N1C[C@@H]2[C@H](c3ccccc31)[C@H](CO)N2C(=O)NC(C)C	-4.0
C[C@@H]1CN([C@H](C)CO)C(=O)c2cccc(NS(=O)(=O)c3ccccc3)c2O[C@@H]1CN(C)C	14.0
CCC(=O)N1C[C@H]2[C@@H](c3ccccc31)[C@H](CO)N2C(=O)Nc1ccccc1F	-3.9
O=C(c1ccccc1)N1C[C@H]2[C@@H](c3ccccc31)[C@@H](CO)N2C(=O)CN1CCOCC1	-12.3
Cc1ccc(S(=O)(=O)Nc2ccc3c(c2)CC(=O)N([C@H](C)CO)C[C@H](C)[C@@H](CN(C)Cc2ccncc2)O3)cc1	-0.9
O=C(C[C@H]1CC[C@H]2[C@@H](COC[C@H](O)CN2C(=O)c2ccccc2F)O1)NCc1ccc(Cl)cc1	0.6
CCC(=O)N1C[C@H](C)[C@H](OC)CN(C)C(=O)c2cc(NC(=O)C3CCCCC3)ccc2OC[C@H]1C	3.2
O=C(c1ccc(F)cc1)N1CCCCN2[C@H](CO)[C@@H](c3ccc(-c4ccccc4)cc3)[C@@H]2C1	-6.7
O=C(Nc1ccc(F)cc1)N1C[C@H]2[C@@H](c3ccccc31)[C@@H](CO)N2C(=O)c1ccccc1	79.2
COc1ccc(S(=O)(=O)N2CC[C@@H]3[C@H]2c2cc(C#Cc4cccc(OC)c4)ccc2N[C@@H]3CO)cc1	-8.3
O=C(c1ccc(F)cc1)N1CCCCN2[C@H](CO)[C@@H](c3ccc(/C=C/c4ccccc4)cc3)[C@@H]2C1	11.1
CS(=O)(=O)Nc1ccc2c(c1)[C@H]1C[C@H](CC(=O)N3CCOCC3)O[C@@H](CO)[C@H]1O2	-1.9
O=C(NC[C@H]1[C@@H](c2ccccc2)[C@H](CO)N1C(=O)C1CCC1)NC1CCCC1	-4.2
CCNC(=O)C[C@@H]1CC[C@H]2[C@@H](COC[C@@H](O)CN2C(=O)CC)O1	-15.1
COCC(=O)N1C[C@H](C)[C@H](OC)CN(C)C(=O)c2cc(NC(=O)Nc3ccccc3)ccc2OC[C@H]1C	5.7
O=C(c1cccnc1)N1CC[C@@H]2[C@H]1c1cc(C#Cc3cccnc3)ccc1N[C@@H]2CO	-5.9
O=C(c1ccc(F)cc1)N1CCCCN2[C@@H](CO)[C@@H](c3ccc(C#CC4(O)CCCC4)cc3)[C@@H]2C1	3.5
CCCN1C[C@@H](C)[C@H](OC)CN(C)C(=O)c2cc(NC(=O)Nc3c(C)noc3C)ccc2OC[C@@H]1C	-11.7

(listing goes on)
canonical_smiles	UUG fidelity
CCS(=O)(=O)Nc1ccc2c(c1)C(=O)N(C)C[C@@H](OC)[C@@H](C)CN(C(=O)NC(C)C)[C@@H](C)CO2	11.4
C[C@H](CO)N1C[C@H](C)[C@H](CN(C)S(=O)(=O)c2ccccc2)Oc2ccc(NC(=O)C3CC3)cc2C1=O	37.8
C[C@@H]1CN([C@@H](C)CO)C(=O)c2cccc(NS(=O)(=O)c3ccc(F)cc3)c2O[C@@H]1CN(C)S(=O)(=O)c1cccs1	5.9
C[C@H]1CN([C@@H](C)CO)C(=O)c2cccc(NC(=O)Nc3ccc(C(F)(F)F)cc3)c2O[C@@H]1CN(C)Cc1ccc2c(c1)OCO2	0.7
CNC[C@H]1Oc2ccc(NS(=O)(=O)c3ccc(C)cc3)cc2C(=O)N([C@H](C)CO)C[C@H]1C	6.1
CO[C@@H]1CN(C)C(=O)c2cc(NC(=O)Nc3ccccc3)ccc2OC[C@H](C)N(C(=O)CN(C)C)C[C@H]1C	-2.3
O=S(=O)(c1ccccc1F)N1CC[C@@H]2[C@@H](CO)Nc3ccc(-c4ccccc4F)cc3[C@@H]21	9.2
COc1ccc(NC(=O)N(C)C[C@@H]2Oc3ccc(NC(=O)Cn4cnnn4)cc3C(=O)N([C@H](C)CO)C[C@H]2C)cc1	-12.4
CN(C[C@H]1[C@@H](c2ccccc2)[C@@H](CO)N1C(=O)C1CC1)C(=O)c1ccccn1	6.9
C[C@H](CO)N1C[C@H](C)[C@@H](CN(C)S(=O)(=O)c2ccccc2)Oc2ccc(NC(=O)C3CCCCC3)cc2CC1=O	20.3
CC=Cc1ccc2n(c1=O)C[C@H]1[C@H](CO)[C@@H](C(=O)N3CCN(C)CC3)N(Cc3ccccc3OC)[C@@H]21 (mixture of isomers)	2.9
COC(=O)C[C@H]1CC[C@H]2[C@H](COc3ccc(NC(=O)c4ccc(C(F)(F)F)cc4)cc3C(=O)N2C)O1	5.9
C[C@H](CO)N1C[C@H](C)[C@@H](CN(C)C)Oc2ccc(NC(=O)Cc3cn(C)c4ccccc34)cc2CC1=O	-5.2
C[C@@H]1CN([C@H](C)CO)C(=O)CCCn2cc(nn2)CO[C@H]1CN(C)C(=O)NC1CCCC1	18.7
CO[C@@H]1CN(C)C(=O)c2cc(NC(=O)C3CC3)ccc2OC[C@@H](C)N(C)C[C@H]1C	-4.3
CN(C)C(=O)c1cccc(-c2ccc3c(c2)[C@@H]2[C@@H](CCN2C(=O)Nc2ccc(F)cc2)[C@H](CO)N3C)c1	-14.1
COc1ccccc1CN1[C@@H]2CN(C(=O)C3CCC3)c3ccccc3[C@@H]2[C@@H]1CO	128.2*
CO[C@@H]1CN(C)C(=O)c2ccc(NC(=O)NC(C)C)cc2OC[C@H](C)N(Cc2ccccc2)C[C@@H]1C	4.3
C[C@@H]1CN([C@H](C)CO)C(=O)c2cccc(NC(=O)c3ccncc3)c2O[C@@H]1CN(C)S(=O)(=O)c1ccc(F)cc1	-5.8
O=C(Nc1cccc(Cl)c1)N1C[C@H]2[C@@H](c3ccccc31)[C@@H](CO)N2Cc1ccccc1Cl	-7.8

Continued:
canonical_smiles	UUG fidelity
CC(C)NC(=O)N1C[C@@H]2[C@H](c3ccccc31)[C@@H](CO)N2C(=O)Nc1ccccc1	7.6
O=C(Nc1ccccc1)N1CCCCN2[C@H](CO)[C@H](c3ccc(Br)cc3)[C@H]2C1	-5.9
CC(C)NC(=O)Nc1ccc2c(c1)CC(=O)N([C@H](C)CO)C[C@@H](C)[C@@H](CN(C)Cc1ccc(C(=O)O)cc1)O2	-13.4
O=C(Cc1ccccc1)N1C[C@H]2[C@@H](c3ccccc31)[C@H](CO)N2S(=O)(=O)c1ccccc1	-9.2
O=C(NC[C@@H]1[C@@H](c2ccccc2)[C@@H](CO)N1Cc1ccccn1)C1CCCC1	-16.8
CC(C)NC(=O)Nc1cccc2c1O[C@H](CN(C)S(=O)(=O)c1ccccc1)[C@@H](C)CN([C@@H](C)CO)C2=O	1.4
C[C@@H]1CN([C@@H](C)CO)C(=O)Cc2cc(N(C)C)ccc2O[C@H]1CN(C)C(=O)Nc1ccc(F)cc1	13.1
C[C@@H]1CN([C@H](C)CO)C(=O)c2cc(NC(=O)CCCN(C)C)ccc2O[C@@H]1CN(C)S(=O)(=O)c1ccc(F)cc1	-5.6
CO[C@@H]1CN(C)C(=O)c2ccc(NS(=O)(=O)c3ccccc3)cc2OC[C@H](C)N(C)C[C@@H]1C	-3.3
CNC[C@@H]1Oc2c(NS(=O)(=O)c3ccc(C)cc3)cccc2C(=O)N([C@@H](C)CO)C[C@@H]1C	-12.4
OC[C@H]1[C@@H](c2ccccc2)[C@@H](CNCC2CCC2)N1CC1CC1	5.7
CO[C@H]1CN(C)C(=O)c2ccc(NC(=O)NC(C)C)cc2OC[C@H](C)N(Cc2ccc(-c3ccccn3)cc2)C[C@H]1C	-3.1
O=C(Nc1ccc(F)cc1)N1C[C@@H]2[C@H](c3ccccc31)[C@@H](CO)N2Cc1ccccc1Cl	32.5
CS(=O)(=O)Nc1ccc2c(c1)[C@@H]1C[C@@H](CC(=O)N3CCOCC3)O[C@H](CO)[C@@H]1O2	-15.3
C[C@@H]1CN([C@@H](C)CO)C(=O)CCCn2nncc2CO[C@@H]1CN(C)Cc1ccccc1C(=O)O	-7.4
CNC[C@@H]1Oc2ccc(NC(=O)Cn3cnnn3)cc2CC(=O)N([C@H](C)CO)C[C@@H]1C	-8.2
O=C(C[C@H]1CC[C@@H]2[C@H](COC[C@@H](O)CN2Cc2ccc(Oc3ccccc3)cc2)O1)N1CCOCC1	-4.1
COc1ccccc1CN1CC[C@H]2[C@H](CO)Nc3ccc(-c4cccc(F)c4)cc3[C@H]21	-10.5
CO[C@@H]1CN(C)C(=O)c2cc(NC(=O)C3CC3)ccc2OC[C@H](C)N(Cc2cccnc2)C[C@@H]1C	0.2
CCCC(=O)Nc1ccc2c(c1)C(=O)N(C)C[C@@H](OC)[C@H](C)CN(Cc1cc(F)ccc1F)[C@H](C)CO2	3.7

Rewritten with each value named: entries from further up.
CC(C)NC(=O)N1C[C@@H]2[C@H](c3ccccc31)[C@H](CO)N2C(=O)NC(C)C
  UUG fidelity: -4.0

C[C@@H]1CN([C@H](C)CO)C(=O)c2cccc(NS(=O)(=O)c3ccccc3)c2O[C@@H]1CN(C)C
  UUG fidelity: 14.0

(continued)
canonical_smiles	UUG fidelity
N#Cc1ccc(-c2ccc3c(c2)[C@@H]2[C@@H](CCN2C(=O)C2CCCCC2)[C@@H](CO)N3)cc1	-6.5
CO[C@H]1CN(C)C(=O)c2ccc(NS(C)(=O)=O)cc2OC[C@@H](C)N(C)C[C@@H]1C	-13.3
C[C@@H]1CN([C@@H](C)CO)C(=O)c2cc(NC(=O)NC3CCCCC3)ccc2O[C@@H]1CN(C)S(C)(=O)=O	4.2
CC(C)NC(=O)Nc1ccc2c(c1)CC(=O)N([C@@H](C)CO)C[C@@H](C)[C@H](CN(C)C(=O)NC(C)C)O2	-3.9
CNC[C@H]1Oc2ccc(NC(=O)Cn3cnnn3)cc2C(=O)N([C@H](C)CO)C[C@@H]1C	-11.4
CCC(=O)N1[C@H](CN(CC)C(C)=O)[C@@H](c2ccc(-c3cccnc3)cc2)[C@@H]1CO	-7.4
